Screening results from PubChem BioAssay.
2A StopGo: High Throughput Screening for Foot and Mouth Disease Virus Antivirals; human cells with a luciferase reporter of 2A StopGo recoding; control for the full effect not named in the record; Potency, µM (highest dose often 57.9 µM), inactives show at the top dose signal change, negative = less light; actives 1.2% (n = 410,000); active = well fitted falling curve with a large enough effect; inconclusive = small, poorly fitted or top-dose-only effect; inactive = no such curve, though single readings can be large or run the other way; tested in HEK293T cells; note: % is set by controls: 0 for no effect and ±100 for the full control effect; nearly all actives have a fitted effect of over 45% in size; luciferase light after 4 h
Cruzain inh Det: qHTS Assay for Promiscuous and Specific Inhibitors of Cruzain (with detergent) | Cruzipain (Trypanosoma cruzi), P25779 | purified cruzain, Z-FR-AMC fluorescence, 0.01% Triton | Potency, µM, without a hit: max response, negative = inhibition, actives largely listed as inhibitors | actives 0.43% (n = 200,000); active = well fitted curve in the direction sought with a large enough effect; inconclusive = small, poorly fitted or top-dose-only effect, or another doubt; inactive = no such curve, though single readings can be large; an effect the other way counts as inactive or inconclusive;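 note: plate controls were neutral wells for no effect and buffer without enzyme for full effect; nearly all actives have a fitted effect of over 40% in size; top concentration of the series not given in the record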
Target sequence (P25779 123-467 limits assumed): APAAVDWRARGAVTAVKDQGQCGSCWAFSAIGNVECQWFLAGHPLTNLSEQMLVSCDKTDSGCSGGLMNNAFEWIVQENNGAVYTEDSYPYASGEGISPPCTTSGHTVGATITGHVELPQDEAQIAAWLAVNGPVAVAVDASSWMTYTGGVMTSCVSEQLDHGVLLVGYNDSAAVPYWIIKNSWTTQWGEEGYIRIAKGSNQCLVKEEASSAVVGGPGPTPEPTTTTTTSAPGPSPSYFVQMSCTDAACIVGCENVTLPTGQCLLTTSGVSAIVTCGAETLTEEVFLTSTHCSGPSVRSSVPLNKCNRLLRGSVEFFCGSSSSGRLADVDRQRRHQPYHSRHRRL
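Enzyme 1.5 nM, Z-FR-AMC 2 uM, NaOAc 100 mM pH 5.5, DTT 5 mM, Triton X-100 0.01%; 15 min RT compound preincubation; kinetic ex360/em450, 60 s delta.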
Marburg entry inh: qHTS for inhibitors of binding or entry into cells for Marburg Virus | actives 1.8% (n = 300,000) | Marburg virus pseudotyped entry inhibition, cell reporter; control for the full effect not named in the record; about a third of the inactives were read at about 46 µM | Potency, µM (series often up to 37.8 µM), without a hit: at the top dose activity change, negative = inhibition, actives largely listed as inhibitors | AID 540276, 2011; active = well fitted inhibition curve with a large enough effect; inconclusive = small, poorly fitted or top-dose-only effect, or effect the other way; inactive = flat fitted curve, though single readings scatter; tested in HEK293 cells; about a fifth of its hits are not listed in these tables; note: % is set by controls: 0 for no effect and ±100 for the full control effect; luciferase read-out
RE007 growth inh: qHTS Assay for Inhibitors of the HIV-1 protein Vpr | S. pombe RE007 Vpr strain, BacTiter-Glo ATP luminescence, 24 h; control for the full effect not named in the record | Potency, µM (doses to about 92.2 µM), for the others: top-dose activity change, negative = less growth | actives 0.21% (n = 360,000) | AID 651644, 2012; active = well fitted falling curve with a large enough effect; inconclusive = small, poorly fitted or top-dose-only effect; inactive = no such curve, though single readings can be large or run the other way;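 note: % is set by controls: 0 for no effect and ±100 for the full control effect; nearly all actives have a fitted effect of over 50% in size; the assay follows cell death caused by Vpr and the record does not say whether a fall means rescue or toxicity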
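Fission yeast strain RE007, carrying one chromosomally integrated HIV-1 vpr copy, was seeded at OD 0.01 in PMG+AL medium with 23 nL pinned compound. After 24 h at 30 °C and 99% humidity, viability was read by BacTiter-Glo luminescence.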
NS1 function inh: qHTS Assay for Inhibitors of Influenza NS1 Protein Function; S. cerevisiae slowed by influenza A NS1, growth recovery by OD600; Potency, µM (top dose mostly 46.1 µM), without a hit: at the top dose activity, positive = more growth; actives 0.4% (n = 270,000); AID 2326, 2010; note: actives are rising curves; nearly all actives have a fitted effect of over 50% in size
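S. cerevisiae expressing influenza A NS1, grown in glucose, washed, then diluted 1:100 into pH 6.0 -URA galactose medium with 23 nl compound. Growth recovery read as OD600; NS1-free strain serves as control.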
SARS PLpro yeast: qHTS of Yeast-based Assay for SARS-CoV PLP | S. cerevisiae expressing SARS-CoV PLpro, growth rescue; control for the full effect not named in the record | Potency, µM (series often up to 32.9 µM), for inactives: at the highest dose activity, positive = growth rescue | actives 0.19% (n = 330,000); note: 0% is about no effect; nearly all actives have a fitted effect of over 55% in size; growth read by luminescence after 48 h
LASV entry inh: qHTS for Inhibitors of binding or entry into cells for Lassa Virus | Potency, µM (doses to about 37.9 µM), for inactives: at the highest dose activity change, negative = inhibition, actives largely listed as inhibitors | AID 540256, 2011 | Lassa virus pseudotype entry inhibition, cell reporter; control for the full effect not named in the record | actives 1.2% (n = 300,000); active means well fitted inhibition curve with a large enough effect; inconclusive means small, poorly fitted or top-dose-only effect, or effect the other way; inactive means flat fitted curve, though single readings scatter; tested in HEK293 cells; note: % is set by controls: 0 for no effect and ±100 for the full control effect; nearly all actives have a fitted effect of over 50% in size; luciferase read-out
Cruzain inh noDet: qHTS Assay for Promiscuous and Specific Inhibitors of Cruzain (without detergent). Cruzipain (Trypanosoma cruzi), P25779. purified cruzain, Z-FR-AMC fluorescence, no detergent. Potency, µM, for inactives: max response, negative = inhibition, hits mostly inhibitors. actives 2.3% (n = 200,000); active = well fitted curve in the direction sought with a large enough effect; inconclusive = small, poorly fitted or top-dose-only effect, or another doubt; inactive = no such curve, though single readings can be large; an effect the other way counts as inactive or inconclusive;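 note: plate controls were enzyme without inhibitor for no effect and buffer without enzyme for full effect; nearly all actives have a fitted effect of over 40% in size; top concentration of the series not given in the record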
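Detergent-free condition (0.00005% Triton X-100) in acetate buffer pH 5.5 with DTT. 1.5 nM enzyme and compound were pre-mixed 15 min, then 2 uM Z-FR-AMC substrate added; reaction progress from fluorescence change between first and third reads (60 s).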
Active calls of the source: *; ? = inconclusive; . = no result given; & = joins results of further samples; [ ] = another dose, or the depositor's remark. Unless noted, calls come from the whole dose curve; as a rule, active means well fitted rising curve with a large enough effect; inconclusive means small, poorly fitted or top-dose-only effect; inactive means no such curve, though single readings can be large or run the other way. Potency is the fitted concentration of half-maximal effect.

mol,NS1 function inh,Cruzain inh Det,Marburg entry inh,SARS PLpro yeast,Cruzain inh noDet,2A StopGo,LASV entry inh,RE007 growth inh
CCS(=O)(=O)C1=NSC2=NC(=O)/C(=C\c3ccc(OS(=O)(=O)c4ccccc4)cc3)C(=N)N21,15%,.,4%[46.1 µM],-3%,.,-12%,17%,-9%
CCOC(=O)N/N=C\c1cccc(OC)c1,3%,.,13%[46.1 µM],-1%,.,31%[activator],-10%,-17%
CCOc1ccc(NC(=O)CCc2nnc3ccc(N4CCN(C)CC4)nn23)cc1,15%,.,?,4%,.,-3%,19%[46.1 µM],10%
O=C(NCCO)c1cccc(Cl)c1,-6%,5.0%,7%,-3%,-3%,-13%,-2%,14%
Cc1nn(-c2ccccc2)c(Cl)c1/C=N/NC(=O)CCNc1n[nH]c(=O)[nH]c1=O,-1%,.,4%,-1%,.,5%,-13%,-7%
COc1ccc(NC(=O)COC(=O)[C@@H]2CCCN2C(=O)c2cccs2)cc1,-4%,5.7%,3%,-2%,-1%,4%,19%,9%
Cc1cc(NC(=O)c2ccccc2)cc(NC(=O)c2ccccc2)c1C,6%,.,20%,3%,.,-2%,18%,0%
Cc1c2cnn(-c3ccccc3)c(=O)c2c(C)n1CC(=O)Nc1ccccc1Br,.,-1.7%,-15%[46.1 µM],.,4%,-13%,3%[46.1 µM],.
Cc1ccc2[nH]c(=O)c(CC=C(Cl)Cl)c(C)c2c1,-6%,-2.1%,8%[46.1 µM],-12%,?,-6%,2%[46.1 µM],-9%
COc1ccc(C)cc1NC(=O)C(NCC(O)c1ccccc1)c1ccccc1 (stereo unspecified),2%,.,.,0%,.,7%,.,1%

Pulled one by one from the entries so far, three records:
mol,NS1 function inh,Cruzain inh Det,Marburg entry inh,SARS PLpro yeast,Cruzain inh noDet,2A StopGo,LASV entry inh,RE007 growth inh
O=C(NCCO)c1cccc(Cl)c1,-6%,5.0%,7%,-3%,-3%,-13%,-2%,14%
Cc1c2cnn(-c3ccccc3)c(=O)c2c(C)n1CC(=O)Nc1ccccc1Br,.,-1.7%,-15%[46.1 µM],.,4%,-13%,3%[46.1 µM],.
Cc1cc(NC(=O)c2ccccc2)cc(NC(=O)c2ccccc2)c1C,6%,.,20%,3%,.,-2%,18%,0%

Structures from the list above containing an aryl methoxy group, in the order listed:
mol,NS1 function inh,Cruzain inh Det,Marburg entry inh,SARS PLpro yeast,Cruzain inh noDet,2A StopGo,LASV entry inh,RE007 growth inh
CCOC(=O)N/N=C\c1cccc(OC)c1,3%,.,13%[46.1 µM],-1%,.,31%[activator],-10%,-17%
COc1ccc(NC(=O)COC(=O)[C@@H]2CCCN2C(=O)c2cccs2)cc1,-4%,5.7%,3%,-2%,-1%,4%,19%,9%
COc1ccc(C)cc1NC(=O)C(NCC(O)c1ccccc1)c1ccccc1 (stereo unspecified),2%,.,.,0%,.,7%,.,1%

Additional structures follow:
mol,NS1 function inh,Cruzain inh Det,Marburg entry inh,SARS PLpro yeast,Cruzain inh noDet,2A StopGo,LASV entry inh,RE007 growth inh
NNc1nnc2c3cc(F)ccc3n(CCc3ccccc3)c2n1,2%,.,10µM*,0%,.,-10%,?,5%
NC(=O)CC(NC(=O)c1ccccc1)c1ccc(NC2CCCC2)c([N+](=O)[O-])c1 (stereo unspecified),4%,.,.,1%,.,?,.,-11%
Cc1ccc(C2CCN(C(=O)Nc3ccccc3)C2)cc1 (stereo unspecified),-83%,-0.9%,12%,-1%,0%,-45%,-18%,-10%
O=C(CN1CCN(C(=O)CN2C(=O)NC3(CCCC3)C2=O)CC1)Nc1cccc(F)c1,.,.,-3%,4%,.,-5%,6%,5%
O=C(NCCNC(=O)Nc1ccc(Cl)cc1)Nc1ccc(Cl)cc1,.,.,28%,.,.,-11%,0%,2%
COc1cc(/C=C/C(=O)OCC(=O)Nc2ccccc2Sc2ccc(Cl)cc2)ccc1O,22%,-5.8%,?,16%,-14%,?,?,13%
C#CCOCCOCCOCCNc1nc(N2CCN(C(=O)[C@H]([C@@H](C)CC)n3cc([C@@H](N)CO)nn3)CC2)nc(N2CCN(C(=O)[C@H]([C@@H](C)CC)n3cc([C@@H](N)CC(C)C)nn3)CC2)n1,2%,.,.,0%,.,-8%,.,-5%
NC(=O)C1CCN(C(=O)CSc2ncccn2)CC1,4%,.,.,0%,.,3%,.,-2%
CCC(C)(C)NC(=O)Cc1ccc(OC)c(OC)c1,1%,2.2%,13%,-4%,3%,4%,-12%,4%[3.69 µM]
Cn1c(=O)c2[nH]c(CCC3CCCC3)nc2n(C)c1=O,.,.,-24%,.,.,?,11%,12%

mol,NS1 function inh,Cruzain inh Det,Marburg entry inh,SARS PLpro yeast,Cruzain inh noDet,2A StopGo,LASV entry inh,RE007 growth inh
COCCNC(=O)c1cccc(OC2CCN(Cc3ccc(F)c(OC)c3)CC2)c1,8%,.,?,?,.,-8%,4%[46.1 µM],2%
O=C(Nc1nccs1)c1ccc(COc2ccc(Cl)cc2)o1,-12%,-10%,5%,.,?,-7%,13%,-14%
CC1CCSP(=O)(Oc2ccccc2)O1 (stereo unspecified),3%,.,1%[46.1 µM],1%,.,-9%,2%[46.1 µM],-6%
O=C1CCc2cc(NS(=O)(=O)c3ccc(Cl)cc3)cc3c2N1CC3,.,.,3%,.,.,15%,-12%,1%
Cc1ccsc1S(=O)(=O)N1CCCC(CCC(=O)NCc2ccccc2F)C1 (stereo unspecified),-10%,.,.,-2%,.,8%,.,20%
CC(C)c1ccc(Nc2nnns2)cc1,-10%,.,1%&1%,-2%,.,-8%,?,-10%
COc1ccc(CN2CC(=O)N(c3cc(Cl)ccc3C)C2=S)cc1OC,0%,.,?,-3%,.,-9%,?,16%
CCC1CCCCN1C(=O)Cn1c(=O)n(-c2ccc(Cl)c(Cl)c2)c(=O)c2c(C)c(C(=O)N(C)C)sc21 (stereo unspecified),.,0.3%,.,.,?,-6%,-11%[46.1 µM],.
O=C(c1ccco1)N1CCN(S(=O)(=O)c2c(Cl)cccc2Cl)CC1,-6%,.,.,-4%,.,-21%,.,12%
CC1CCCC(NC(=O)COC(=O)[C@@H](NC(=O)c2ccccc2Cl)C(C)C)C1C (stereo partly specified),.,.,5%,-8%,.,-11%,2%,-7%

mol,NS1 function inh,Cruzain inh Det,Marburg entry inh,SARS PLpro yeast,Cruzain inh noDet,2A StopGo,LASV entry inh,RE007 growth inh
O=C(Nc1ccc2c(c1)OCO2)c1n[nH]c(=O)c2ccccc12,0%,.,.,-6%,.,23%,.,0%
Cc1ccccc1N(CC(=O)N/N=C/c1cc(Br)c(C)o1)S(C)(=O)=O,-8%,-7.5%,0%,3%,7%,-24%,?,-11%
Cc1ccccc1Cn1ccc(-c2ccc3c(c2)OCO3)n1,3%,0.9%,7%,-11%,-2%,12%,?,0%
COc1ccc(N/C(N)=N/c2nc(CSc3ccc(C)cc3)cc(=O)[nH]2)cc1,-15%,-9.6%,-4%[46.1 µM],4%,7%,16%,9%,-5%
CC1(C)CSC(C)(C)C(=O)N1,.,.,?,.,.,-5%,14%[46.1 µM],-5%
COc1ccc(/C=C/C(=O)O)cc1S(=O)(=O)NCc1ccccc1,0%,.,6%[46.1 µM],-2%,.,4%,27%[46.1 µM],-13%
CCCN(CC(=O)Nc1ccccc1C)C(=O)c1ccc(S(=O)(=O)N2CCCCCC2)cc1,3%,.,?,2%,.,-16%,2%,-1%
CCOC(=O)c1c(C)oc2c1C(=O)c1ccccc1C2=O,-32%,.,?,-1%,.,-21%,?,?
CCOc1ccc(C(=O)COC(=O)c2cccc(-n3cnnn3)c2)cc1,-5%,.,17%,7%,.,7%,-5%,37%
Cc1ccc(C2NC(=O)c3c(sc4c3CCN(C)C4)N2)o1 (stereo unspecified),-33%,-13%,11%,-6%,-6%,.,23%,-22%

mol,NS1 function inh,Cruzain inh Det,Marburg entry inh,SARS PLpro yeast,Cruzain inh noDet,2A StopGo,LASV entry inh,RE007 growth inh
Clc1ccc(Cn2nnc(-c3ccc(CN4CCOCC4)cc3)n2)cc1,-66%,-4.5%,?,-10%,?,14%,-10%,15%
CCOC(=O)c1sc2nc(CSc3ccccc3)nc(N3CCC(C(N)=O)CC3)c2c1C,.,.,?,-5%,.,?,-21%,0%
O=S(=O)([N-]c1nc2ccccc2nc1-n1cc[n+](Cc2ccccc2)c1)c1ccc(Br)cc1,0%,.,-4%[46.1 µM],-1%,.,6%,?,-2%
COc1cc(OC)c(OC)cc1CN1CCN(c2ccc(F)cc2)CC1,-2%,.,-18%,-1%,.,-20%,17%,-3%
Cc1cc(C)c2nc(-c3ccccn3)cc(C(=O)NCc3cc(C)n(C)n3)c2c1,4%,.,2%,0%,.,-16%,-3%,-3%
CSCCC(NC(=O)c1ccco1)C(=O)NCc1ccc(F)cc1 (stereo unspecified),4%,7.3%,2%,8%,-6%,-2%,-11%,-2%[3.69 µM]
CC(C)(C)C(=O)Nc1ccc(-c2nc3ccccc3s2)cc1,.,-3.3%,.,.,2%,4.5µM*,?,.
O=C(c1cnc2n(c1=O)CCS2)N1CCN(C(c2ccccc2)c2ccc(Cl)cc2)CC1 (stereo unspecified),-3%,-4.8%,0%,-3%,?,0%,.,9%
COC(=O)c1ccc(NC(=O)CN2CCCC2)cc1,2%,7.1%,15%[46.1 µM],-1%,-6%,22%,24%,-23%
CCn1c(Cc2ccccc2)nnc1SCC(=O)NC1CC1,-2%,1.2%,-4%,9%,9%,?,1%,-8%
COC(=O)CCC(=O)NC(=S)Nc1ccccc1F,-3%,.,.,-2%,.,42%[activator],.,-27%
CCOc1ccc(NC(=O)c2c(NCc3cccs3)sc3c2CCC(C)C3)cc1 (stereo unspecified),.,7.2%,.,.,11%,41%[activator],12%[46.1 µM],.
